rRNA inh HTS: inhibitors of bacterial rRNA selective over humanized ribosomes; E. coli WT GFP vs humanized-ribosome RFP mutants, fluorescence, 24 h; stronger effect = lower value; DMSO median 0, no signal -100; GFP signal change (wild-type ribosome), % (test concentration not listed); 350,000 compounds, 1.6% hits;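 active = significant combined selectivity score with lowered wild-type GFP, culture density cut under 30%, mutant RFP and density less affected; inactive = any of these conditions unmet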; note: one replicate is shown; some compounds called inactive have numbers as strong as hits
Ecoli growth: blocks Escherichia coli growth; OD600, 23 h; stronger effect = lower value; OD600 absorbance (no concentration beside the values); AID 1053175; 330,000 compounds, 0.21% hits;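 active = OD600 absorbance below the run mean of sample wells minus 3.6 SD, in any replicate, cut at about 0.56 in these data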;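 note: stock transfer was 300 nL into about 60 µL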
HNF4A DNA FP: change in binding of human HNF4 alpha to DNA; P41235; HNF4a-FITC DNA binding, fluorescence polarization, 1 h; activity change, % at 10 µM; 360,000 compounds, 0.3% hits; in the data active = activity change above about 30%, passing the limit was not always enough;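 note: controls were the assay level and a saturating level of protein; the project sought stronger binding though the title names inhibitors; some compounds called inactive have numbers as strong as hits; positive values seem to mean higher polarization but the record does not say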
Target sequence (P41235 whole entry, looked up): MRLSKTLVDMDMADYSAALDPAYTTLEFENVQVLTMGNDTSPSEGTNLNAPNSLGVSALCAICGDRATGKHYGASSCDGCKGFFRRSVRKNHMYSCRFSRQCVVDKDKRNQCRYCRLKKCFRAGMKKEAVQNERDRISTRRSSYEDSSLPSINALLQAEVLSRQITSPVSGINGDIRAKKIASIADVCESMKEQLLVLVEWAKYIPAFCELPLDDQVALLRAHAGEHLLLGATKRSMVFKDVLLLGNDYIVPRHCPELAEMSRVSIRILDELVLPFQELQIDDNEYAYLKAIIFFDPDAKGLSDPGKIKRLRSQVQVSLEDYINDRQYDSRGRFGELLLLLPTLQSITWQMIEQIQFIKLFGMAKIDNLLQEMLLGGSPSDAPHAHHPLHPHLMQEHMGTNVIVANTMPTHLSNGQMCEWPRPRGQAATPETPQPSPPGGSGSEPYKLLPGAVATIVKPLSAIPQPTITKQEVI
FGF22 binding: FGF22 (human) thermal shift binding | Q9HCT0 | recombinant FGF22 thermal shift, SYPRO orange fluorescence; percent of sucrose octasulfate shift, DMSO zero | calls only at 9.99 µM | 340,000 compounds, 1.5% hits | AID 651658;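 active = melting point raised past a set limit in the mean and every replicate; three in four hits are not shown here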
Target sequence (Q9HCT0 whole entry, looked up): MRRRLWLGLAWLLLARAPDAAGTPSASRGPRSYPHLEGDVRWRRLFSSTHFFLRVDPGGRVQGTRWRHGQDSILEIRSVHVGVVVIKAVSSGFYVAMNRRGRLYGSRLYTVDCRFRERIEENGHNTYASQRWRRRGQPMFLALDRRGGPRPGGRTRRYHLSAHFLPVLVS
Vif TR-FRET: HIV-1 Vif–A3G interaction blockers – biochemical, TR-FRET, GST-Vif 1-94, biotin-A3G peptide, dose response retest, primary screen (AID 1117319) | TR-FRET GST-Vif / biotin-A3G peptide binding; higher % means a stronger effect; test concentration not given here; strong numbers were not always called active | inhibition, %, or IC50 in µM where a hit was titrated | 260,000 compounds, 0.57% hits;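 active = above the screen mean plus three standard deviations and confirmed in dose response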;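 note: Vif residues 1-94 fused to GST binding biotinylated APOBEC3G peptide 110-148; 0% = full assay without inhibitor and 100% = GST in place of GST-Vif; retest series ran down from 100 µM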
ALR inh: human ALR oxidase inhibition via reduced H2O2; P55789; purified ALR, DTT oxidation, H2O2 HRP-luminol luminescence; inhibition, % (no concentration beside the values); 290,000 compounds, 3.8% hits; AID 485317;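 active = mean and each replicate at 75% or more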;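 note: stock transfer was 7.5 nL into about 7.5 µL; 0% = neutral wells and 100% = wells with inactivated enzyme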
Target sequence (P55789 whole entry, looked up): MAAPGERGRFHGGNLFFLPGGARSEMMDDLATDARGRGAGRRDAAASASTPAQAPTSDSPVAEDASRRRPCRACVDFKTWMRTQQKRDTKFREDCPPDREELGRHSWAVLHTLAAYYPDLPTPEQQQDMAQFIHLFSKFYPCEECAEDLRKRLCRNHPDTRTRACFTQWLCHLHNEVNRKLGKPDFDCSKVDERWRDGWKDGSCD
MLL AF4-AF9 inh: inhibitors of human MLL-AF4/AF9 interaction; inhibition, % at 10 µM; 350,000 compounds, 0.47% hits; AlphaScreen, biotin-AF4 peptide binding to FLAG-AF9; P42568;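 active = every replicate reaching a set inhibition limit, whatever the replicate mean, cut at about 25% in these data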;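 note: 0% = plate neutral control median and 100% = total signal loss; the record names both 10 and 1 µM as test concentration; the first replicate is given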
rRNA inh HTS OD600: second read-out of rRNA inh HTS, no call of its own (marks repeat the call); OD600 change, %; measured here: OD600 growth;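 optical density of the mix in the first replicate; 0 = DMSO median and -100 = no signal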
rRNA inh HTS RFP: second read-out of rRNA inh HTS, no call of its own (marks repeat the call); RFP signal change, %; measured here: RFP humanized mutant strains;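 first replicate; 0 = DMSO median and -100 = no signal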
The depositor's hits bear a star; i = inactive; . = not tested or not shown; & = joins results of further samples. Only part of the results is shown; rates above refer to the full screens.

Screens in order – rRNA inh HTS, rRNA inh HTS OD600, FGF22 binding, HNF4A DNA FP, MLL AF4-AF9 inh, rRNA inh HTS RFP, Ecoli growth, Vif TR-FRET, ALR inh
COC(=O)Cn1c(=NC(=O)c2cc(OC)c(OC)c(OC)c2)sc2cc(OC)ccc21
    1, -2, i, -1.8, -72, -7.4, 0.68, -21%, -21
CN=c1sc2ccccc2n1CC(O)COCc1ccco1 (stereo not drawn)
    ., ., ., -1.6, ., ., 0.71, -5%, 4
COc1ccc2c3c(n(C)c2c1)[C@H](CO)N(C(=O)CN1CCOCC1)CC31CCN(C(=O)C2CC2)CC1
    -1, 0, i, ., -10, -4.7, ., ., .
C=CCn1c(CCNC(=O)c2ccccc2F)nnc1SCC(=O)Nc1nc(C)cs1
    ., ., ., 1.0, ., ., 0.75, 2%&-1%, -8
CCOC(CNC(=O)c1cc2c(=O)n(CC)c3ccccc3c2s1)OCC
    5, 5, i, -1.3, 0.1, 1.4, 0.67, -10%, .
C[C@H](CO)N1C[C@H](C)[C@H](CN(C)C(=O)NC2CCCCC2)Oc2ncc(C#CC(C)(C)O)cc2C1=O
    6, 18, i, ., -4.7, -3.2, ., ., .
O=C(COC(=O)c1ccc([N+](=O)[O-])cc1Cl)NC(=O)c1ccccc1
    13, 10, i, 0.1, -1.3, -1.3, 0.7, 1%, -16
CO[C@@H]1CN(C)C(=O)c2cc(NS(=O)(=O)Cc3ccccc3)ccc2OC[C@H](C)NC[C@@H]1C
    1, 5, i, ., -1.3, 0.8, ., ., .
O=C(CSc1nnc(-c2ccccc2Cl)o1)Nc1ccccn1
    4, 11, ., -1.4, -7.8, -1.1, 0.68, ., -5
COc1ccc(NC(=O)N[C@@H]2CC[C@H](CCNS(=O)(=O)c3ccccc3F)O[C@@H]2CO)cc1
    2, 1, i, ., 2.9, 0.6, ., ., .
Cc1ccc(NC(=O)c2ncn(CCCN[C@H](C)c3cccc4ccccc34)n2)cc1C
    -55, -83, i, 3.3, 6.1, -20, ., ., .
CCOC(=O)C1Oc2ccccc2C(c2ccc(OC)cc2)=C1C(=O)OC (stereo not drawn)
    -8, -42, i, -0.9, 7.0, -7.5, 0.71, 0%, .
CCOC(=O)C1CCN(C(=S)Nc2cccc(C)c2)CC1
    13, 9, i, -0.8, 0.7, 4.0, 0.7, -1%, -6
O=C(C[C@@H]1CC[C@@H]2[C@H](COC[C@H](O)CN2Cc2cc(F)ccc2F)O1)N1CCc2ccccc2C1
    -7, -30, i, ., 2.5, 4.7, ., ., .
Oc1ccc(C=NCCc2ccccc2)cc1
    2, 6, i, -2.7, -2.6, 5.3, 0.69, 2%, -1

Reprinted from the part before: 5 entries, followed by the next part.
Screens in order – rRNA inh HTS, rRNA inh HTS OD600, FGF22 binding, HNF4A DNA FP, MLL AF4-AF9 inh, rRNA inh HTS RFP, Ecoli growth, Vif TR-FRET, ALR inh
Cc1ccc(NC(=O)c2ncn(CCCN[C@H](C)c3cccc4ccccc34)n2)cc1C
    -55, -83, i, 3.3, 6.1, -20, ., ., .
CCOC(=O)C1Oc2ccccc2C(c2ccc(OC)cc2)=C1C(=O)OC (stereo not drawn)
    -8, -42, i, -0.9, 7.0, -7.5, 0.71, 0%, .
CCOC(=O)C1CCN(C(=S)Nc2cccc(C)c2)CC1
    13, 9, i, -0.8, 0.7, 4.0, 0.7, -1%, -6
O=C(C[C@@H]1CC[C@@H]2[C@H](COC[C@H](O)CN2Cc2cc(F)ccc2F)O1)N1CCc2ccccc2C1
    -7, -30, i, ., 2.5, 4.7, ., ., .
Oc1ccc(C=NCCc2ccccc2)cc1
    2, 6, i, -2.7, -2.6, 5.3, 0.69, 2%, -1
O=c1cc(-c2ccccc2F)nc(-c2ccccc2F)o1
    -5, -6, i, 4.1, -0.1, -1.6, 0.7, -3%, 0
CC1CCN(C(=O)CCC(=O)Nc2nnc(C3CCCCC3)s2)CC1
    -2, -4, i, 7.1, -0.6, 1.0, 0.63, 6%, -3
CCCC1=NN2C(=N)/C(=C\c3cc(C)n(-c4cccc(C)c4)c3C)C(=O)N=C2S1
    -2, 2, i, 3.7, -1.2, 7.2, 0.69, -10%, 16
CSCCC(NC(=O)c1ccco1)C(=O)Nc1ccncc1 (stereo not drawn)
    7, 23, i, 4.9, -1.7, 0.2, 0.71, ., 0
O=C(/C=C/c1ccc(Cl)cc1Cl)Nc1ccc(CN2CCOCC2)cc1
    2, 2, i, 3.7, 0.4, -1.0, 0.65, ., 27
COc1ccc(OC)c(C2=Nn3c(nnc3-c3cc(C)[nH]n3)SC2)c1
    -18, -20, i, 1.0, 0.2, -0.9, 0.7, -7%, .
CC(C)[C@H](NC(=O)c1ccccc1)C(=O)OCC(=O)N1CCCCCC1
    ., ., ., -0.9, ., ., 0.66, ., -2
COc1ccccc1-c1ccc2c(c1)O[C@@H](CN(C)S(=O)(=O)c1ccc(C)cc1)[C@H](C)CN([C@@H](C)CO)S2(=O)=O
    5, 2, i, ., -2.5, -1.9, ., ., .
COc1ccc(CCCN2CCC(CN3C(=S)NC[C@@H]3Cc3ccccc3)CC2)cc1OC
    25, 12, i, 1.9, 22, 2.2, ., -3%, .
CO[C@H]1CN(C)C(=O)c2ccc(NC(=O)Nc3ccc(F)cc3)cc2OC[C@H](C)NC[C@H]1C
    -2, -4, i, ., 2.3, 0.8, ., ., .
CC(=O)NCCNc1nc2cc(-c3cccc(C(F)(F)F)c3)sc2c(=O)n1C
    -12, 3, i, 1.0, 3.4, 1.3, ., ., .
CC(C(=O)NCc1ccccc1)n1c(-c2ccc3c(c2)CCO3)nc2ccccc21 (stereo not drawn)
    -1, -2, i, -0.8, ., 1.6, ., ., .
O=C(NCCc1ccccc1)c1cccc(N2C(=O)C3CC=CCC3C2=O)c1 (stereo not drawn)
    -11, -10, i, -2.3, 2.3, -0.9, 0.73, 2%, .
CCOc1ccc(-c2nnc(SCC(=O)Nc3cc(C)on3)o2)cc1
    -1, -3, i, -0.6, -1.5, 3.9, 0.73, ., -4
O=C(COC(=O)CN1C(=O)NC2(CCCC2)C1=O)Nc1c(Cl)cccc1C(F)(F)F
    0, 8, i, -4.2, 1.2, -0.5, 0.69, -4%, -10
NC(=O)SCC(=O)Nc1ccc(Cl)cc1
    ., ., ., 0.5, ., ., 0.53*, 23%, 99*
CCNc1nc(NCC)nc(ON=C(C)C)n1
    ., ., ., ., ., ., 0.75, -5%, -15
COc1cccc(C2C(C#N)=C(N)N(N(C)C)C3=C2C(=O)CCC3)c1 (stereo not drawn)
    5, 9, i, -0.4, 1.7, -4.2, 0.7, -4%, -108
COc1cccc(NC(=O)CCCn2c(=O)[nH]c3ccccc3c2=O)c1
    ., ., ., 0.8, ., ., 0.71, -8%, -1
CC1CC(C)(C)Nc2ccc(OC(=O)c3ccco3)cc21 (stereo not drawn)
    ., ., ., -0.4, ., ., 0.73, -4%, 55
Cc1cccc(OCc2ccc(C(=O)Nc3ccc(F)cc3)cc2)c1
    ., ., ., -4.0, ., ., 0.67, 8%, .
COc1ccc2c(c1)CC/C2=N\OC(=O)c1ccccc1OC
    -15, -11, i, 4.5, 1.2, 4.7, ., -3%, -4
Cc1ccc(S(=O)(=O)N(C)C[C@H]2Oc3ccc(NC(=O)NC4CCCCC4)cc3CC(=O)N([C@@H](C)CO)C[C@H]2C)cc1
    -1, -4, i, ., 1.2, 4.2, ., ., .
COC(=O)Nc1nnc(COc2ccccc2)s1
    1, 15, i, 3.1, -2.7, 2.8, ., -3%, 2
CCOC(=O)N1CCC(Nc2c(NCCCN(CC)Cc3ccccc3)c(=O)c2=O)CC1
    3, 4, i, -3.2&0.5, 2.8&1.3, -0.2, 0.67&0.71, -3%&-3%, -27
CNc1ccc(/C=C/C(=O)c2cccc3ccccc23)cc1[N+](=O)[O-]
    ., ., i, 0.6, -1.2, ., 0.75, ., .
Cc1cc2oc(=O)cc(CN3CCOCC3)c2cc1Cl
    4, 0, i, -0.5, 3.9, -5.1, 0.69, ., 0
COc1ccc2cc(C(=O)NC3CCCCC3)c(=O)oc2c1
    ., ., ., -0.9, ., ., 0.72, 0%, .
COc1ccc(NC(=O)CCC(=O)Nc2nnc(CC(C)C)s2)cc1Cl
    9, 0, i, -0.6, -15, -1.6, 0.68, ., -1
COCCNS(=O)(=O)c1cc(C)c(C)cc1C
    ., ., i, -3.7, 1.0, ., 0.74, 2%, -18
CC1(C)CC(=O)C(N=Nc2ccc(Br)cc2)=C(O)C1
    4, 2, i, 4.2, -4.0, 0.6, 0.68, 76%, -3
COc1ccc(CC(=O)NCC(=O)N/N=C/c2sccc2C)cc1
    2, 4, i, -1.0, -1.9, 2.9, ., -1%, -12
CCOc1ccccc1N(C(=O)CNC(=O)c1ccco1)C(C(=O)NC1CCCC1)c1ccncc1 (stereo not drawn)
    5, 1, i, 0.0, -0.9, -0.9, 0.66, ., -6
N#C/C(=C/c1cccc([N+](=O)[O-])c1)c1nnc2n1CCCCC2
    ., ., ., -0.2, ., ., 0.68, 18%, 6
COc1ccc(CC(=O)Oc2ccc(C#N)cc2)cc1
    1, 10, i, 1.8, -5.0, -0.6, 0.67, ., 9
O=C1CC2(CCN(C(=O)c3ccc(Br)cc3)CC2)Oc2ccccc21
    -2, -10, i, -1.9, 1.0, 0.7, 0.69, 1%, -2
CCN1C(=O)[C@H]2[C@H]3CN=C(SCC(=O)c4ccccc4)N3[C@@](C)(C(=O)OC)[C@H]2C1=O
    13, 16, i, 0.3, -3.8, 4.9, 0.65, -5%, .
O=C(C[C@@H]1CC[C@@H]2[C@H](COC[C@@H](O)CN2C(=O)Nc2ccc(F)cc2)O1)NCCc1ccccc1
    -2, -7, i, ., -2.1, -0.5, ., ., .
COc1ccc(N=C/C=C2/C=C(c3ccccc3)OC(C)(C)O2)cc1
    16, 11, i, 1.0, 3.3, -2.5, 0.71, 6%, 24
O=C(c1ccccc1Cl)N1CCN(S(=O)(=O)c2cccs2)CC1
    4, -1, i, -1.3, -4.8, 2.7, 0.7, ., -9
Cc1ccc(NC(=O)CN(C)C(=O)c2cn(Cc3ccccc3)nc2-c2cccnc2)cc1
    0, 3, i, 0.8, -3.1, -1.5, 0.7, -6%, .
CCCNC(=O)N(C)C[C@H]1Oc2ncc(C3=CCCCC3)cc2C(=O)N([C@H](C)CO)C[C@@H]1C
    -2, 9, i, ., -6.5, -0.2, ., ., .
O=C(c1ccccc1F)N1CCC(O)(c2cccnc2)CC1
    ., ., ., -0.4, ., ., 0.67, 5%, -2
O=c1[nH]c(/C=C/c2ccc(Cl)cc2Cl)c([N+](=O)[O-])c(=O)[nH]1
    -9, -18, i, -0.7, -0.3, -2.3, 0.66, -6%, 97*
C[C@H](CO)N1C[C@H](C)[C@@H](CN(C)S(=O)(=O)c2ccc(F)cc2)OCCCC[C@H](C)Oc2ccc(NC(=O)CCCN(C)C)cc2C1=O
    1, 8, i, ., 8.0, 0.6, ., ., .
CCCc1ncc(C(O)(c2ccccc2)c2ccc(C)cc2)n1C (stereo not drawn)
    ., ., ., 1.1, ., ., 0.71, 0%, .
CCC(=O)N1CC2(C1)[C@H](c1ccccc1)[C@@H](CO)N2Cc1ccccc1F
    1, 5, i, ., 1.5, 0.5, ., ., .
CCC(COC)NC(=O)CCc1nnc(Cc2c[nH]c3ccccc23)o1 (stereo not drawn)
    14, 11, i, 3.3, 1.6, 0.5, 0.68, ., .
CCOC(=O)c1nc(N2CCN(C(=O)OCC)CC2)c2c3c(sc2n1)CCCC3
    ., ., ., 0.7, ., ., 0.7, -9%, -25
